# Rce1 inh: yeast Rce1p protease inhibitors, primary screen, biochemical, fluorescence, cell-free homogeneous | CAAX prenyl protease 2 (Saccharomyces cerevisiae (strain ATCC 204508 / S288c)), Q03530 | AID 2563, 2010 | yeast membranes, quenched prenylated peptide cleavage fluorescence | calls only | 0.27% of 290,000 active;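 active means fall in fluorescence gain of 50% or more versus controls, with final raw signal at or below 3038400; inconclusive means same 50% fall but final raw signal above 3038400; inactive means fall in fluorescence gain under 50%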;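 further: plate controls were neutral control wells for no effect and wells lacking membranes for full effect; tested at 10 µM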
# Target sequence (Q03530 whole entry, looked up): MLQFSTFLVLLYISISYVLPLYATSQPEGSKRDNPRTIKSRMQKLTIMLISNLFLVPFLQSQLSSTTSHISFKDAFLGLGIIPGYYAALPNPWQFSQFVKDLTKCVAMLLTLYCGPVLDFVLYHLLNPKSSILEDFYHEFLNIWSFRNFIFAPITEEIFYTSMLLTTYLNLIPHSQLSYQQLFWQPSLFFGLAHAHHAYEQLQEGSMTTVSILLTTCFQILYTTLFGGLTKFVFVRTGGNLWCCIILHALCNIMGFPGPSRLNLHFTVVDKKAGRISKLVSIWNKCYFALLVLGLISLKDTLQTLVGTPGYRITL
# eIF4H inh: human eIF4H binding inhibitors, primary screen, translation initiation inhibitor project, biochemical, uHTS, fluorescence polarization. Eukaryotic translation initiation factor 4H (Homo sapiens), Q15056. eIF4H fluorescence polarization binding assay. inhibition, % at 35 µM. 0.94% of 290,000 active. AID 2012, 2009;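 active means 50% or more with normal probe brightness, or confirmed in later tests; inconclusive means above 50% with abnormal brightness, or retests that disagree; inactive means below 50% or failed in later tests; about a fifth of its hits are not listed in these tables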;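 further: calls also rest on retests at 20 µM and on dose response follow-up; 0% = protein and probe with vehicle and 100% = probe without protein; strong numbers were not always called active; many hits fall short of the cut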
# CSC inhib: cancer stem cell viability inhibitors, primary screen, luminescence | cancer stem cell-like cells viability | inhibition, % at 7.5 µM | 1.1% of 300,000 active;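 active means mean at 75% or more and at least half the replicates too; inconclusive means mean and replicates disagree; tested in HMLE shEcad cells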;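 further: 0% = median of negative and 100% = median of positive control wells; the first replicate is given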
# Yeast UUG start: modulators of yeast start codon fidelity, primary screen, whole organism, S. cerevisiae, single point, plate reader; 0.13% of 350,000 active; activity score, % at 18.7 µM; S. cerevisiae UUG-firefly luciferase reporter, luminescence/redox ratio;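 active means replicate mean at a twofold rise or more, about +100% in these data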;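 further: firefly luciferase made from a UUG start codon reports start codon fidelity; reporter light over untreated wells divided by growth signal over untreated wells; some hits fall short of that in this replicate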
# PABP FP inh: PABP poly(A) RNA binding inhibitors, primary screen, biochemical, fluorescence polarization, uHTS; inhibition, % at 35 µM; Polyadenylate-binding protein 1 (Homo sapiens), P11940; AID 2014, 2009; 1% of 290,000 active;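 active means 50% or more with normal probe brightness, or confirmed in later tests; inconclusive means above 50% with abnormal brightness, or retests that disagree; inactive means below 50% or failed in later tests; about a fifth of its hits are not listed in these tables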;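 further: calls also rest on retests at 20 µM and on dose response follow-up; controls were probe without protein and protein plus probe with vehicle; some compounds called inactive have numbers as strong as hits; many hits fall short of the cut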
# MT1-MMP act inh: blockers of MT1-MMP proenzyme processing, primary screen, HT1080 RFP-PRO-GFP cells, GFP/RFP fluorescence; Matrix metalloproteinase-14 (Homo sapiens), P50281; GFP/RFP ratio fluorescence, overnight; percent of plate control window, DMSO zero; 0.061% of 360,000 active; GFP/RFP ratio change, % at 20 µM;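 active means GFP/RFP ratio change of at least 30% with cell ATP level not reduced by more than half and red fluorescence within 50% of control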; further: strong numbers were not always called active
#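 Test system: HT1080 RFP-PRO-GFP cells; Benchmarks: DMSO and RFP-L50D-GFP cell wells; Timing: cells overnight before dosing, compound overnight, 37 °C, 5% CO2; Compound: one 20 µM compound dose with 1% DMSO; Read-out: GFP/RFP fluorescence ratio.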
# HIV Env fusion: inhibitors of HIV-1 Env-driven cell-cell fusion, primary screen, HeLa-JRFL effector, CEM21 target cells, luciferase. inhibition, % at 12.3 µM. 1.1% of 360,000 active;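 active means mean replicate inhibition score of at least 50 and every replicate individually at or above 50; inconclusive means only one of the two criteria met; inactive means mean below 50 and not all replicates reaching 50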;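 further: 0% = plate neutral controls and 100% = maraviroc near 300 nM; one replicate is shown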
# eIF4H inh retest: recorded beside eIF4H inh, whose call it bears; inhibition, %; compound at 20 µM; confirmation average;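 mean of two retest wells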
# PABP FP inh retest: second read-out of PABP FP inh, no call of its own (marks repeat the call); inhibition, %; compound at 20 µM; confirmation repeats;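 mean of two retest wells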
# MT1-MMP act inh RFP: recorded beside MT1-MMP act inh, whose call it bears; RFP signal change, %; measured here: RFP expression control read;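 0 = vehicle wells; hits needed this value within 50% of zero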
# * hit, by the source's call; i = inactive; ? = inconclusive; / = no result given.
SMILES,Rce1 inh,eIF4H inh,CSC inhib,Yeast UUG start,PABP FP inh,MT1-MMP act inh,MT1-MMP act inh RFP,HIV Env fusion,others
COC(=O)C1=C(C)NC(=O)NC1c1ccsc1 (stereo not drawn),i,-12,10,-10,-7,4,7,/,
CCc1c(C)nc2ncnn2c1N1CCCC(C(=O)NCc2cccs2)C1 (stereo not drawn),i,-4,13,/,-7,4,-5,3,
Cc1c(O[C@@H]2O[C@H](CO)[C@@H](O)[C@H](O)[C@H]2O)c(CO)c(O[C@@H]2O[C@H](CO)[C@@H](O)[C@H](O)[C@H]2O)c2c1O[C@@H](c1ccccc1)C[C@@H]2O,/,/,-14,-7,/,3,7,-41,
C=CCNc1nc(Nc2ccc(OC)c(OC)c2)c2sc(-c3ccccc3)cc2n1,/,/,/,-10,/,8,-8,-288,
CC(C)CC(=O)Nc1nnc(-c2ccco2)s1,i,13,-11,1,6,1,4,/,
CCOC(=O)[C@H]1[C@H]2COc3cc(OC)ccc3[C@@H]2N2C(=O)c3c(C)cc(C)cc3NC(=O)[C@@]12C,/,/,/,-15,/,0,1,-5,
Cc1ccc(C(=O)Cn2c(C(=O)/C=C/c3ccccc3)nc3ccccc32)cc1,i,-6,41,-26,6,-17,-20,?,
NC(=O)CC(NC(=O)Cc1ccc(Br)cc1)c1ccc(NCC2CC2)c([N+](=O)[O-])c1 (stereo not drawn),i,8,-1,-16,-1,13,5,-7,
COCCN(CC(=O)NCc1ccccc1)C(=O)CCC(=O)Nc1ccccn1,i,4,1,-4,7,0,8,/,
COc1ccc(NC(=O)c2[nH]c(C)c(C(C)=O)c2C)cc1Cl,i,-3,-11,3,-4,4,3,/,

# Reprinted at random: five records from the list, in no set order.
SMILES,Rce1 inh,eIF4H inh,CSC inhib,Yeast UUG start,PABP FP inh,MT1-MMP act inh,MT1-MMP act inh RFP,HIV Env fusion,others
CC(C)CC(=O)Nc1nnc(-c2ccco2)s1,i,13,-11,1,6,1,4,/,
CCOC(=O)[C@H]1[C@H]2COc3cc(OC)ccc3[C@@H]2N2C(=O)c3c(C)cc(C)cc3NC(=O)[C@@]12C,/,/,/,-15,/,0,1,-5,
COc1ccc(NC(=O)c2[nH]c(C)c(C(C)=O)c2C)cc1Cl,i,-3,-11,3,-4,4,3,/,
COC(=O)C1=C(C)NC(=O)NC1c1ccsc1 (stereo not drawn),i,-12,10,-10,-7,4,7,/,
Cc1c(O[C@@H]2O[C@H](CO)[C@@H](O)[C@H](O)[C@H]2O)c(CO)c(O[C@@H]2O[C@H](CO)[C@@H](O)[C@H](O)[C@H]2O)c2c1O[C@@H](c1ccccc1)C[C@@H]2O,/,/,-14,-7,/,3,7,-41,

# Next section
SMILES,Rce1 inh,eIF4H inh,CSC inhib,Yeast UUG start,PABP FP inh,MT1-MMP act inh,MT1-MMP act inh RFP,HIV Env fusion,others
COc1cccc(C(=O)NC2CC3CCCC(C2)N3Cc2ccc(C)cc2)c1 (stereo not drawn),i,-7,-15,7,-4,7,3,0,
OC(c1cc(F)cc(Cl)c1)c1ncc(-c2ccccc2C(F)(F)F)[nH]1 (stereo not drawn),/,/,/,-4,/,-1,0,-8,
COc1ccc(C(=O)NCC(=O)OCC(=O)NC23CC4CC(CC(C4)C2)C3)cc1,/,/,-17,2,/,-4,1,/,
Cc1cc(O)c(S(=O)(=O)c2ccccc2)c(C)c1NS(=O)(=O)c1ccccc1,i,0,/,-6,3,-4,-3,8,
Cc1cccc(N(C(=O)c2csnn2)C(C(=O)NC2CCCC2)c2ccncc2)c1 (stereo not drawn),i,2,3,6,5,3,5,10,
Cc1cccc2cc(/C=N/NC(=O)CN3CCCCC3)c(Cl)nc12,i,-1,4,/,4,/,/,/,
COc1ccccc1/C=N/NC(=O)C(=O)N1CCN(c2ccccc2OC)CC1,i,3,-6,4,0,1,3,0,
CCOC(=O)C1CCN(C(=O)c2cn(C)c(=O)c3cc(OC)c(OC)cc23)CC1,i,2,-14,/,2,5,5,5,
CCOc1ccc(NS(=O)(=O)c2ccc(NS(=O)(=O)c3ccc(SC)cc3)cc2)cc1,i,-5,/,-30,5,8,0,18,
Cn1c(NC(=O)/C=C/c2ccco2)cc(=O)n(C)c1=O,i,57,-4,/,2,-2,3,-8,eIF4H inh retest=-10;PABP FP inh retest=0
O=S(Cc1cc(Oc2ccccc2)nc(-c2ccccc2)n1)c1ccccc1 (stereo not drawn),i,-3,1,15,-7,-1,-4,/,
CC1=CC(=O)C=C(C)C1=NOc1ccc([N+](=O)[O-])cc1,i,-1,1,/,-6,4,4,13,
O=C(NCc1ccco1)C(=O)N1CCCC1,i,-3,-19,/,5,2,3,2,
CC1Cc2ccccc2N1Cc1nc2cc(C(F)(F)F)ccc2c(=O)[nH]1 (stereo not drawn),i,-5,-4,/,13,4,10,/,
CCCn1c(=O)c2c(C(=O)OCC)cc(-c3ccco3)nc2n(CCC)c1=O,i,-3,/,-15,-14,-1,-1,/,
COc1ccc(OCCNC2CCCC2)cc1,i,18,-14,/,5,3,6,-8,
CCC1CCCCN1S(=O)(=O)c1ccc(NC(=O)CSc2ncccc2C(=O)O)cc1 (stereo not drawn),i,5,/,-9,33,6,2,/,
OCCN1CCN(c2nc(-c3ccccc3O)nc3ccccc23)CC1,i,-7,20,-3,-6,-6,-7,16,
N#Cc1ccc(CN2C=NS(=O)(=O)c3ccccc32)cc1,i,-7,-8,/,2,1,4,-13,
FCCCOc1ccc(-c2nccc(-c3ccc(F)cc3)n2)cc1,i,3,28,1,-4,-1,2,/,
O=C(NNC(=S)Nc1ccccc1)c1ccc(O)cc1,i,-8,-4,/,-5,1,5,-23,
Cn1c(CNC(=O)c2ccc(Cl)c(Cl)c2)nnc1SCC(=O)Nc1sc2c(c1C#N)CCCC2,i,9,16,-16,12,-3,-3,3,
C=CCC1(Cl)C(=O)C(Cl)=C(N2CCOCC2)C1(OC)OC (stereo not drawn),i,-7,-9,-13,1,3,6,1,
O=C(Nc1ccc2c(c1)OCCO2)C1CCN(S(=O)(=O)Cc2ccccc2)CC1,i,-1,-9,-5,-6,0,0,-27,
O=C1OCCC1Sc1nc2ccccc2n1Cc1ccccc1 (stereo not drawn),i,-2,/,-20,4,4,6,/,
Cn1c(=Nc2ccccc2)sc2ccccc21,i,-6,-21,-19,-7,-5,0,/,
O=C1c2ccccc2C(=O)N1CCCOCc1c[nH]c(=O)[nH]c1=O,i,-2,6,/,3,2,3,/,
CN1C(=O)NC(NC(=O)c2cccs2)(C(F)(F)F)C1=O (stereo not drawn),i,0,3,-20,-4,-3,5,-41,
Nc1ccccc1C(=O)NCCCN1CCOCC1,i,4,-12,-21,3,0,1,-4,
Fc1ccc(-c2[nH]ncc2CN2CCN(c3ccc(F)cc3)CC2)cc1,i,-6,-12,/,-5,3,0,17,
Cc1ccc(NC2=Nc3ccccc3CS2)cc1,i,-2,-3,-7,2,-1,1,/,
Cc1cccn2c(=O)c(/C=C(\C#N)C(=O)NC3CCS(=O)(=O)C3)c(Oc3ccc(F)cc3)nc12 (stereo not drawn),i,11,2,-17,16,-5,-2,-3,
CC1=NNC(=O)C1CC(=O)N/N=C(\C)c1ccco1 (stereo not drawn),i,2,-15,/,8,1,1,6,
O=C(O)c1cccc(Cn2cc(Br)cn2)c1,i,-1,-9,-10,5,6,8,/,
COc1ccccc1CNc1nc(Nc2ccccc2Cl)c2sccc2n1,/,/,/,-20,/,-7,-26,20,
COC(=O)c1cc(S(=O)(=O)NCC2CCN(Cc3ccccc3F)CC2)c[nH]1,i,7,-6,-10,-3,0,3,-4,
COc1cc(C(=O)NC(=S)NCc2ccco2)cc(OC)c1OC,i,-2,-7,-1,7,9,-3,-53,
Cc1nnc(SCC(=O)NC2CCCC(C)C2C)n1N (stereo not drawn),/,/,-6,-6,/,-2,3,-12,
O=C(Cc1cccc2ccccc12)N1CC[C@@]2(O)CCCC[C@H]2C1,i,0,-9,1,15,1,2,0,
Oc1ccccc1CNc1ccc(OC(F)(F)F)cc1,i,4,-1,/,-7,-12,-17,-4,

# A draw from above in order of formula weight, lowest first.
SMILES,Rce1 inh,eIF4H inh,CSC inhib,Yeast UUG start,PABP FP inh,MT1-MMP act inh,MT1-MMP act inh RFP,HIV Env fusion,others
CCCn1c(=O)c2c(C(=O)OCC)cc(-c3ccco3)nc2n(CCC)c1=O,i,-3,/,-15,-14,-1,-1,/,
Cc1cc(O)c(S(=O)(=O)c2ccccc2)c(C)c1NS(=O)(=O)c1ccccc1,i,0,/,-6,3,-4,-3,8,
Cc1cccn2c(=O)c(/C=C(\C#N)C(=O)NC3CCS(=O)(=O)C3)c(Oc3ccc(F)cc3)nc12 (stereo not drawn),i,11,2,-17,16,-5,-2,-3,

# The listing continues:
SMILES,Rce1 inh,eIF4H inh,CSC inhib,Yeast UUG start,PABP FP inh,MT1-MMP act inh,MT1-MMP act inh RFP,HIV Env fusion,others
OC(c1ccccc1)c1nccn1Cc1ccccc1 (stereo not drawn),i,-5,-6,-15,1,3,9,/,
CCOC(=O)c1cnn(Cc2ccccc2)c1N,i,-2,1,/,9,4,3,/,
O=c1[nH]c(/C=C/c2ccc(OC(F)F)cc2)nc2c1cnn2-c1ccccc1,i,-4,2,/,-7,2,3,-34,
O=C(COC(=O)c1ccc[nH]c1=O)NC1CCCc2ccccc21 (stereo not drawn),i,-8,14,1,-6,0,2,16,
CCOc1ccc(S(=O)(=O)N2CCOCC2)cc1NC(=O)CN1C(=O)NC2(CCCCC2)C1=O,/,/,2,-10,/,-5,1,1,
Cc1cc[n+](CC(=O)Nc2cc(C(F)(F)F)ccc2Cl)cc1,i,4,/,-17,-2,-2,0,/,
CCn1ncc(Br)c1C(=O)Nc1nccs1,i,-6,-5,-4,-1,-6,-6,-189,
O=C(CSc1nc2ccc(NC(=O)CSc3nnnn3-c3ccccc3)cc2s1)Nc1ccccc1,i,-1,5,-14,-1,2,-3,23,
Cc1ccc(NC(=O)NCC(c2ccccc2)N(C)C)cc1 (stereo not drawn),i,-8,-7,-10,3,4,3,-42,
CN(C)/C=C/C(=O)/C=C/c1ccc(Cl)cc1,i,-9,-11,/,4,-1,-2,-15,
Cc1ccc(CNc2ccc(S(=O)(=O)N3CCOCC3)cc2[N+](=O)[O-])cc1,i,-7,2,/,-19,-1,-4,2,
Cc1c(C(=O)Nc2nnc(SCc3ccccc3Cl)s2)cccc1[N+](=O)[O-],i,6,15,-11,6,-3,-4,10,
Cc1nc2c(Br)c3nc(C(F)(F)F)[nH]c3c(Br)c2[nH]1,i,-12,19,-14,16,3,9,/,
COc1ccc(C)cc1NC(=O)Nn1cnnc1,i,-4,2,-5,5,2,5,-81,
COc1ccccc1NC(=O)COc1ccc(C(=O)OCC(=O)NC(C)(C)C)cc1OC,i,0,12,/,4,2,4,1,
O=C(NCCc1ccccc1)c1ccc(CS(=O)Cc2cccc(Cl)c2)o1 (stereo not drawn),i,-5,-25,-8,2,1,-2,0,

# The list is partial. The share of hits here may be higher or lower than overall.
